Screening data deposited in PubChem by National Center for Advancing Translational Sciences (NCATS).
HPGD block: qHTS Assay for Inhibitors of HPGD (15-Hydroxyprostaglandin Dehydrogenase) | 4.3% of 150,000 active | 15-hydroxyprostaglandin dehydrogenase [NAD(+)] (Homo sapiens), P15428 | AID 894, 2007 | Potency, µM, for the others: at the top dose activity change, negative = inhibition, hits mostly inhibitors | purified HPGD, NADH fluorescence kinetic, PGE2 substrate; active = well fitted inhibition curve with a large enough effect (not every such curve was filed as active); inconclusive = small, poorly fitted or top-dose-only effect, or another doubt; inactive = no such curve, though single readings can be large or run the other way;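 further: top concentration of the series not given in the record; plate controls included wells without enzyme; inactives centre near -10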
Target sequence (P15428 whole entry, looked up): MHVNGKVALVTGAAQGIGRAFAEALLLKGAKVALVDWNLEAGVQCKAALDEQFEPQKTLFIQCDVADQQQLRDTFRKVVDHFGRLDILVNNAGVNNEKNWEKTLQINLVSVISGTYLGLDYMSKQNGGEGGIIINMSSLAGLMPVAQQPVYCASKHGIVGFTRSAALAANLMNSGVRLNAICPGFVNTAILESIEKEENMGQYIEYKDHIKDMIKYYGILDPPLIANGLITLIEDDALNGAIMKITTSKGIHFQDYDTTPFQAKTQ
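20 nM HPGD preincubated 15 min at room temperature with compound in 50 mM Tris-HCl pH 8, 0.01% Tween 20. Started with 1 mM NAD+ and 30 uM prostaglandin E2; NADH fluorescence (360/450 nm) read 5 times over 30-s intervals, last minus first.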
Active calls of the source: *; ? = inconclusive; & = joins results of further samples. On the % scale 0 is the no-effect control and ±100 the full control effect; potency means the concentration at half of the fitted maximal effect. Not all compounds are listed; rates above refer to the full screens.

SMILES	HPGD block
Cc1ccc(-n2ncc3c(N4CCC5(CC4)OCCO5)ncnc32)c(C)c1	-10%
CCOC(=O)N1CCN(Cc2nc3c(c(=O)[nH]c(=O)n3C)n2Cc2ccccc2C)CC1	-3%
C[N+]1(CC(=O)Nc2ccccc2Cl)CCN(C(=O)c2cccs2)CC1	-9%
COc1ccc(OC)c(Nc2cc(C)nc3ccccc23)c1	-7%
O=C(CNC(=O)c1ccc(Br)cc1)NCCc1nc2ccccc2[nH]1	-15%
COc1ccccc1N(C(=O)CN1C(=O)c2ccccc2S1(=O)=O)C(C(=O)NCC1CCCO1)c1ccc(F)cc1 (centres undefined)	-8%
O=C(c1cc2c(s1)CCCC2)N1CCN(C(=O)C2CCCO2)CC1 (centres undefined)	-4%
O=c1c2ccccc2sc2nc(C3CCCCC3)n(Cc3ccco3)c(=O)c12	16µM*
CC(C)(C)c1cc(CN(CCO)CCO)cc(C(C)(C)C)c1O	25µM*
COc1ccccc1N(C)S(=O)(=O)c1ccc(C(=O)OCC(=O)NCc2ccco2)cc1	-13%
CNC(=O)Cn1ncc2c(C)n(Cc3ccc(C)cc3)c(C)c2c1=O	-2%
Nn1c(Cc2cccc3ccccc23)nnc1SCc1ccc(Cl)c(Cl)c1	2.8µM*
S=C(Nc1ccc(Oc2ccccc2)cc1)NC1CCCCCC1	-14%
CCOC(=O)C1=C(C)NC(=O)NC1c1ccc2c(c1)OCO2 (centres undefined)	-18%
O=C(COc1ccccc1[N+](=O)[O-])N/N=C/c1ccccn1	-12%
CCN(CC)c1ccc(C=C2C(=O)OC3(CCCC3)OC2=O)cc1	?
C(=N\c1nc2ccccc2n1CCN1CCOCC1)/c1cccs1	-10%
COc1ccc(OCCNS(=O)(=O)c2ccc3oc4ccccc4c3c2)cc1	-21%
CC(=O)Oc1cc2c(c(C)c1OC(C)=O)CC=C1[C@]3(C)CC[C@]4(C)CC[C@@](C)(C(=O)O)CC4[C@]3(C)CC[C@]12C (some centres undefined)	-12%
O=S(=O)(c1ccc(S(=O)(=O)n2cnc3ccccc32)cc1)N1CCCCCC1	-2%
CCC(C)NC(=O)COC(=O)c1cccnc1Nc1ccccc1F (centres undefined)	-10%
Cn1c2c(c(=O)n(C)c1=O)C(NC(=O)C(C)(C)C)(C(F)(F)F)C(=O)N2 (centres undefined)	-11%
Cc1ccc(/C=c2/sc3n(c2=O)CCCN=3)o1	-27%
CC(C)CC1=NN(C(=O)c2cccnc2)C(O)(C(F)(F)F)C1 (centres undefined)	-5%
CCCc1[nH]nc2c1C(c1ccc(OC)cc1OC)C(C#N)=C(N)O2 (centres undefined)	-6%
CCOC(=O)CNC(=O)Cn1cnc2c(nnn2-c2cccc(Cl)c2)c1=O	-14%
CCOc1ccc(S(=O)(=O)N(CC(N)=O)c2ccc(C)cc2)cc1	-10%
Cc1nc2sccn2c(=O)c1CCN1CCC(=C(c2ccccc2)c2ccc(F)cc2)CC1	-17%&-16%
CN1CCN(C(=S)Nc2cccc(C(F)(F)F)c2)CC1	-4%
CC1CCN(C(=O)C(Cc2ccccc2)n2cccc2)CC1 (centres undefined)	28µM*
COCC(=O)Nc1nnc(CCc2ccccc2)s1	-3%
Cc1cc(Cl)ccc1OC(C)C(=O)Nc1ccc(S(=O)(=O)Nc2cnc3ccccc3n2)cc1 (centres undefined)	?
O=C(COC(=O)c1cccs1)Nc1cccc(S(=O)(=O)N2CCOCC2)c1	-10%
CN(Cc1ccccc1)c1nc2c(c(=O)n(C)c(=O)n2C)n1CCCc1ccccc1	-6%
Cc1[nH]c(=O)[nH]c(=O)c1S(=O)(=O)N1CCCC(C(=O)N2CCN(c3ccccc3Cl)CC2)C1 (centres undefined)	-25%
O=C(O)c1ccc(N/N=C/c2ccc(F)c(F)c2)cc1	-22%
C/C(N)=C(/C#N)C(=O)COC(=O)c1ccncc1	-12%
COc1ccc2c(c1)O[C@H](c1ccc3c(c1)OCO3)[C@@H](OC(=O)NCCOc1ccccc1)C2=O	4%
CN1/C(=C/C2CC(=O)N(c3ccc([N+](=O)[O-])cc3)C2=O)C(C)(C)c2ccccc21 (centres undefined)	-20%
O=C(O)/C=C/C(=O)Nc1cccc(C(F)(F)F)c1	0%
Cc1nn(-c2ccccc2)c(C)c1NC(=O)COc1ccc(F)cc1Cl	-16%
Cc1nn(CC(=O)NCc2ccccc2)c(=O)c2ccccc12	-7%
CCOc1ccc(NC(=O)CSc2nnc(C)n2CC2CCCO2)cc1 (centres undefined)	-3%
O=C(COC(=O)c1cccs1)Nc1ccc(S(=O)(=O)N2CCOCC2)cc1	-2%
C/C(=N\OC(=O)Nc1ccc(Cl)cc1)c1ncc(C(F)(F)F)cc1N1CCOCC1	-5%

Not a retest: an excerpt of the list.
SMILES	HPGD block
Cc1cc(Cl)ccc1OC(C)C(=O)Nc1ccc(S(=O)(=O)Nc2cnc3ccccc3n2)cc1 (centres undefined)	?
O=C(COC(=O)c1cccs1)Nc1cccc(S(=O)(=O)N2CCOCC2)c1	-10%
CN(Cc1ccccc1)c1nc2c(c(=O)n(C)c(=O)n2C)n1CCCc1ccccc1	-6%

Single values from the results shown.
Value for Cc1nn(-c2ccccc2)c(C)c1NC(=O)COc1ccc(F)cc1Cl in HPGD block: -16%
Value for O=C(COC(=O)c1cccs1)Nc1cccc(S(=O)(=O)N2CCOCC2)c1 in HPGD block: -10%
Value for CCOc1ccc(NC(=O)CSc2nnc(C)n2CC2CCCO2)cc1 (centres undefined) in HPGD block: -3%
Value for CN(Cc1ccccc1)c1nc2c(c(=O)n(C)c(=O)n2C)n1CCCc1ccccc1 in HPGD block: -6%

Continuation:
SMILES	HPGD block
CC1=C(C(=O)OC2CCCCCCC2)C(c2ccc(O)cc2)NC(=O)N1 (centres undefined)	-14%
CN(CCc1ccccn1)c1ccc2c(c1)Cc1ccccc1-2	-10%
CN(C)c1ccc(/C=C2\SC(=O)N(CC(O)Cn3c4ccccc4c4ccccc43)C2=O)cc1 (centres undefined)	4%
CCOC(=O)C1OC1c1ccccc1 (centres undefined)	-9%
O=C(CN(Cc1ccco1)C(=O)CNS(=O)(=O)c1ccc(Cl)cc1)NC1CCCCC1	-6%
COc1cc(/C=C(\C#N)C(=O)Nc2cc(C(F)(F)F)ccc2Cl)ccc1OCC(=O)Nc1cccc(C(F)(F)F)c1	?
COc1ccc(C2C(C(N)=O)=C(C)Nc3ncnn32)cc1 (centres undefined)	-3%
COc1ccc(N2CCN(c3oc(Cc4ccccc4)nc3C#N)CC2)cc1	-15%
O=C(NC1CCCCC1)c1sc(=S)n2c1[nH]c(=O)c1ccccc12	13µM*
Cc1ccc(C)c(N(CC(=O)NCCC2=CCCCC2)S(C)(=O)=O)c1	-2%
O=C(c1csnn1)N1CCC2(CCN(Cc3nccs3)CC2)CC1	-6%
O=c1c(-c2ccc(F)c(F)c2)nc2cncnc2n1Cc1ccc(F)cc1	-14%
CCc1cc(OCCN2C(=O)NC(C)(C)C2=O)ccc1Cl	-13%
O=C(Nc1ccc(Cl)c(Cl)c1)OCCNC(=O)c1cccc(Cl)c1	-6%
CCn1c(SCc2nc3ccccc3[nH]2)nnc1-c1ccncc1	-6%
O=C(CSc1nnc(-c2cccnc2)n1Cc1ccco1)c1ccccc1	16µM*
CCOC(=O)C1CCCN(C(=O)CS(=O)(=O)Cc2ccccc2)C1 (centres undefined)	6%
Cc1nc(SCC(=O)c2cccs2)c2oc3ccccc3c2n1	13µM*
Cc1[nH]c2ccccc2c1C(c1ccccn1)c1c(C)[nH]c2ccccc12	-19%
CCc1ccc2c(c1)N(C[C@H](C)CN(C)C)c1ccccc1S2	-16%
Cc1cc(O)c(/C=N/Nc2ccc(Cl)cc2)c(=O)o1	-14%
Cc1cccc(NC(=O)c2cc(NC(=O)C3CCCCC3C(=O)O)ccc2N2CCCCC2)c1 (centres undefined)	1%
CNC(=O)c1ccsc1NC(=O)c1ccc(Cl)s1	-22%
Cc1ccc(/C=N/NC(=O)CSc2nc3ccccc3c(=O)n2-c2ccccc2C)s1	-12%
CSC1=C(C#N)C(c2ccc(C)cc2)C2=C(CCCC2=O)N1 (centres undefined)	-15%
CCC(NS(=O)(=O)c1ccc(C)cc1)C(=O)N1CCN(c2ccccn2)CC1 (centres undefined)	-8%
CC(=O)N1CCc2cc(S(=O)(=O)NCCC(=O)NCCc3ccccc3)ccc21	-11%
CCN1CCC[C@@H]1CNC(=O)c1cc(S(N)(=O)=O)ccc1OC	-4%
Cc1ccc(CSc2ncnc3c2cnn3Cc2ccccc2)cc1C	-2%
COc1ccccc1-n1cnnc1SC1CCOC1=O (centres undefined)	-3%

Exported as labelled records: entries from further up.
CSC1=C(C#N)C(c2ccc(C)cc2)C2=C(CCCC2=O)N1 (centres undefined)
  HPGD block: -15%

CNC(=O)c1ccsc1NC(=O)c1ccc(Cl)s1
  HPGD block: -22%

CC(=O)N1CCc2cc(S(=O)(=O)NCCC(=O)NCCc3ccccc3)ccc21
  HPGD block: -11%

COc1ccccc1-n1cnnc1SC1CCOC1=O (centres undefined)
  HPGD block: -3%

(continued)
SMILES	HPGD block
CCCOC(=O)/C(=C\c1ccc([N+](=O)[O-])o1)NC(=O)c1ccccc1	-14%
Cc1sc(-n2c(C)cc(/C=C3\SC(=S)NC3=O)c2C)c(C#N)c1C	?
CCOc1ccc(NC(=S)NN2C(C)CCCC2C)cc1 (centres undefined)	-13%
CCCCN(C)C1=CC2=CC(=C(C#N)C#N)CCC2CC1 (centres undefined)	-19%
S=c1[nH]nc([C@@H]2C[C@H]2c2ccccc2)n1-c1ccccc1	25µM*
O=c1cc(NCc2ccco2)[nH]c(=O)n1-c1ccc(Br)cc1	-7%
CCN(CC)S(=O)(=O)c1ccc(NC(=O)CCC2CCCCC2)cc1	-14%
O=C(Nc1cccc(S(=O)(=O)N2CCCCC2)c1)c1ccc2c(c1)OCO2	0%
CC/C(=N\NC(=S)Nc1ccc(OC)cc1)c1ccc(OC(F)F)cc1	-8%
c1ccc2c(CCNc3ncnc4nc[nH]c34)c[nH]c2c1	-8%
O=C(OCc1cc2ccccc2[nH]c1=O)c1ccncc1	-13%
Cc1nnc(NC(=O)c2cccc(F)c2)s1	-14%
COc1cc(C)c(CNc2cccc(C)c2)cc1C	-22%
Cc1cc(C)n2nc(C(=O)Nc3nccs3)nc2n1	-6%
Cc1ccc(CNc2ccc(CNc3ncn[nH]3)cc2)cc1	-6%

Ordered by the number under HPGD block (smallest number first): some entries from above.
SMILES	HPGD block
CCCCN(C)C1=CC2=CC(=C(C#N)C#N)CCC2CC1 (centres undefined)	-19%
CCCOC(=O)/C(=C\c1ccc([N+](=O)[O-])o1)NC(=O)c1ccccc1	-14%
c1ccc2c(CCNc3ncnc4nc[nH]c34)c[nH]c2c1	-8%
O=c1cc(NCc2ccco2)[nH]c(=O)n1-c1ccc(Br)cc1	-7%
O=C(Nc1cccc(S(=O)(=O)N2CCCCC2)c1)c1ccc2c(c1)OCO2	0%

(continued)
SMILES	HPGD block
COC(=O)C(Cc1cnc(Cl)s1)(C(=O)OC)c1ccccc1[N+](=O)[O-]	-4%
CCOC(=O)c1sc(NC(=O)Cn2nnc3sc4c(c3c2=O)CCC(C(C)(C)C)C4)nc1C (centres undefined)	?
COc1ccc(OC)c(S(=O)(=O)NC2CCCCC2)c1	-23%
N#CC1=C2SCN(Cc3ccccc3)CN2C(=O)CC1c1ccc2c(c1)OCO2 (centres undefined)	25µM*
N#Cc1c(NC(=O)c2ccncc2)sc2c1CCC2	-22%
N#Cc1ccccc1Cn1c(=O)n(C2CCCC2)c(=O)c2ccccc21	-26%
S=C1NC(c2ccccc2)=NCN1c1ccccc1	-11%
CN(CCCNS(=O)(=O)c1cccc2cccnc12)Cc1ccccc1	-12%
Cn1c(SCC(=O)N2CCN(c3ccccc3)CC2)nnc1-c1ccco1	3%
CCOc1ccc(N(C(C)C(=O)NCc2ccco2)S(C)(=O)=O)cc1 (centres undefined)	-2%
CC(C)Cc1nc2n[nH]c(N)c2c2c1CCC2	-5%
O=C(O)CN(c1ccc2c(c1)OCCO2)S(=O)(=O)c1ccccc1	-7%
COc1ccc(-c2c(C(F)(F)F)oc3c(CN4CCN(C)CC4)c(O)ccc3c2=O)cc1	-8%
CC(=O)c1c(C)[nH]c(C(=O)NC2=NCCS2)c1C	-5%
O=C(CNC(=O)c1ccc(-c2ccccc2)cc1)OCc1c(Cl)cccc1Cl	-7%
O=C(C1CCN(S(=O)(=O)c2ccc(F)cc2)CC1)N1CCOCC1	-11%
COc1ccc(NC2=C(C(C)=O)C(c3ccc4c(c3)OCO4)C(C(C)=O)C(C)(O)C2)cc1 (centres undefined)	-20%
COc1cc(NCCCCCCCN)c2ncccc2c1	-12%
CCN(CC)CC(O)COc1ccc2c(c1)c(C(C)=O)c(C)n2-c1ccccc1 (centres undefined)	-8%
CC(C)(C)OC(=O)NCC(=O)Oc1cc2oc(=O)cc(-c3ccccc3)c2cc1Cl	?
C/C(NCCCn1ccnc1)=C(\C#N)C(N)=O	0%
Cc1ccc(N)c2c1OCCC2=O	-6%
CC(C)COCC1CC2(CC(C)C(=O)CC2=O)C(=O)O1 (centres undefined)	-2%
Cc1cc(C)cc(CC2CC(=O)N(c3nc(C)cc(C)n3)C2=O)c1 (centres undefined)	-24%
Cc1cc(=O)c2n(Cc3ccccc3Cl)nc[n+]2[nH]1	20µM*
COc1ccc(C(=O)NC(=S)Nc2cc(C)ccn2)cc1[N+](=O)[O-]	-9%
CC(=O)N1c2ccccc2C(C)CC12CCCCC2 (centres undefined)	-5%
CC(=O)/C(=N\Nc1ccc(C)cc1)Sc1nncn1C	-10%
CCOc1cc(S(=O)(=O)N2CCOCC2)ccc1F	3%
CC1CCCCN1C(=O)COc1ccc(NC(=O)c2ccco2)cc1 (centres undefined)	-25%
CCCCOc1ccc(-c2nc(=S)[nH][nH]2)cc1	?
O=C(CSCC(=O)Nc1cccc([N+](=O)[O-])c1)Nc1ccccc1	-9%
